Screens: PubChem BioAssay, several laboratories
HIV Env fusion – inhibitors of HIV-1 Env-driven cell-cell fusion, primary screen, HeLa-JRFL effector, CEM21 target cells, luciferase. inhibition, % at 12.3 µM. 360,000 tested, 1.1% active;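 active = mean replicate inhibition score of at least 50 and every replicate individually at or above 50; inconclusive = only one of the two criteria met; inactive = mean below 50 and not all replicates reaching 50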;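 also: 0% = plate neutral controls and 100% = maraviroc near 300 nM; one replicate is shown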
CSC inhib – cancer stem cell viability inhibitors, primary screen, luminescence; 300,000 tested, 1.1% active; inhibition, % at 7.5 µM; AID 2717, 2010; cancer stem cell-like cells viability;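 active = mean at 75% or more and at least half the replicates too; inconclusive = mean and replicates disagree; tested in HMLE shEcad cells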;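 also: 0% = median of negative and 100% = median of positive control wells; the first replicate is given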
Rce1 inh – yeast Rce1p protease inhibitors, primary screen, biochemical, fluorescence, cell-free homogeneous. 290,000 tested, 0.27% active. CAAX prenyl protease 2 (Saccharomyces cerevisiae (strain ATCC 204508 / S288c)), Q03530. yeast membranes, quenched prenylated peptide cleavage fluorescence. AID 2563, 2010. calls only;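 active = fall in fluorescence gain of 50% or more versus controls, with final raw signal at or below 3038400; inconclusive = same 50% fall but final raw signal above 3038400; inactive = fall in fluorescence gain under 50%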;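 also: plate controls were neutral control wells for no effect and wells lacking membranes for full effect; tested at 10 µM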
MT1-MMP act inh – blockers of MT1-MMP proenzyme processing, primary screen, HT1080 RFP-PRO-GFP cells, GFP/RFP fluorescence. Matrix metalloproteinase-14 (Homo sapiens), P50281. GFP/RFP ratio fluorescence, overnight; percent of plate control window, DMSO zero. GFP/RFP ratio change, % at 20 µM. 360,000 tested, 0.061% active. AID 651647, 2012;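 active = GFP/RFP ratio change of at least 30% with cell ATP level not reduced by more than half and red fluorescence within 50% of control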; also: strong numbers were not always called active
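Assay system: HT1080 RFP-PRO-GFP cells | Dosing: 20 µM single dose, 1% DMSO | Incubation: Cells overnight before dosing, compound overnight, 37 °C, 5% CO2 | Evaluation: GFP/RFP fluorescence ratio | Control set: DMSO-only wells and HT1080 RFP-L50D-GFP cell wells as references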
PABP FP inh – PABP poly(A) RNA binding inhibitors, primary screen, biochemical, fluorescence polarization, uHTS | AID 2014, 2009 | inhibition, % at 35 µM | Polyadenylate-binding protein 1 (Homo sapiens), P11940 | 290,000 tested, 1% active;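 active = 50% or more with normal probe brightness, or confirmed in later tests; inconclusive = above 50% with abnormal brightness, or retests that disagree; inactive = below 50% or failed in later tests; about a fifth of its hits are not listed in these tables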;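 also: calls also rest on retests at 20 µM and on dose response follow-up; controls were probe without protein and protein plus probe with vehicle; some compounds called inactive have numbers as strong as hits; many hits fall short of the cut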
Target sequence (P11940 whole entry, looked up): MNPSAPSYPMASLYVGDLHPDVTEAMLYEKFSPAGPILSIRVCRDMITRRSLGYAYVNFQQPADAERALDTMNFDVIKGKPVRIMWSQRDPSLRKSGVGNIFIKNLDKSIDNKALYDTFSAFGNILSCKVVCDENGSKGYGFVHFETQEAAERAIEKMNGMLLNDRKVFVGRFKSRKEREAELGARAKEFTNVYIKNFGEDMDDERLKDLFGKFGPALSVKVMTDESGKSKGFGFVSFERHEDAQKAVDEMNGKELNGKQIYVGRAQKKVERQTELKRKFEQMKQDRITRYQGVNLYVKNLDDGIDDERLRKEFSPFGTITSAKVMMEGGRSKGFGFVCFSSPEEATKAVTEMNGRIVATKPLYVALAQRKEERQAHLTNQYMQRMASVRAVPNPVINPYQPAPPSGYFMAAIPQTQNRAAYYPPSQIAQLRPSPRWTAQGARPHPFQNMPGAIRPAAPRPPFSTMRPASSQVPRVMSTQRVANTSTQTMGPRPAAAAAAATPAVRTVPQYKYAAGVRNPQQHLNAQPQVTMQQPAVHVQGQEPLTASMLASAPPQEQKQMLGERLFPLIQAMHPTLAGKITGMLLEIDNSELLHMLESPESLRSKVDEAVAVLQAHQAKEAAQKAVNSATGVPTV
eIF4H inh – human eIF4H binding inhibitors, primary screen, translation initiation inhibitor project, biochemical, uHTS, fluorescence polarization. eIF4H fluorescence polarization binding assay. Eukaryotic translation initiation factor 4H (Homo sapiens), Q15056. inhibition, % at 35 µM. 290,000 tested, 0.94% active;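 active = 50% or more with normal probe brightness, or confirmed in later tests; inconclusive = above 50% with abnormal brightness, or retests that disagree; inactive = below 50% or failed in later tests; about a fifth of its hits are not listed in these tables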;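 also: calls also rest on retests at 20 µM and on dose response follow-up; 0% = protein and probe with vehicle and 100% = probe without protein; strong numbers were not always called active; many hits fall short of the cut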
Yeast UUG start – modulators of yeast start codon fidelity, primary screen, whole organism, S. cerevisiae, single point, plate reader; S. cerevisiae UUG-firefly luciferase reporter, luminescence/redox ratio; activity score, % at 18.7 µM; 350,000 tested, 0.13% active; AID 602363, 2012;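 active = replicate mean at a twofold rise or more, about +100% in these data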;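 also: firefly luciferase made from a UUG start codon reports start codon fidelity; reporter light over untreated wells divided by growth signal over untreated wells; some hits fall short of that in this replicate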
MT1-MMP act inh RFP – further read-out of MT1-MMP act inh, marked with its call; RFP signal change, %; measured here: RFP expression control read;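 0 = vehicle wells; hits needed this value within 50% of zero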
Numbers without * were called inactive; i = inactive; ? = inconclusive; . = no result given. An excerpt, so the mix of outcomes need not match the whole.

Values run as follows: HIV Env fusion	CSC inhib	Rce1 inh	MT1-MMP act inh	MT1-MMP act inh RFP	PABP FP inh	eIF4H inh	Yeast UUG start
O=C(/C=C/c1cccs1)Nc1ccc(Br)cn1
 : i	57	i	3	-9	6	7	.
CC(=O)Nc1ccc(CN2CCN(CCc3ccccc3)C(CCO)C2)cc1 (centres undefined)
 : -2	-12	i	0	3	-2	-8	-15
COc1ccc(C(=O)NCCCNC(=O)c2ccco2)cc1OC
 : -12	.	i	2	2	-5	-3	-5
O=C(CCC(=O)N1CCSc2ccccc21)NCc1cccc(Br)c1
 : 3	-9	i	-1	0	1	-2	-14
O=C(CSc1nnnn1C1CC2CCC1C2)Nc1ccnc2ccccc12 (centres undefined)
 : .	-1	.	-3	-28	3	-2	0
Cc1cccc(N2CCN(C(=O)c3c(Cl)cnn3C)CC2)c1C
 : 29	-3	i	2	-1	-8	-4	-4
CC(C)Nc1nc(-c2ccccc2CO)c2sccc2n1
 : -4	.	.	2	3	.	.	-5
Cc1cccc(S(=O)(=O)NC(=O)C2(C)CCN2C(=O)Cc2ccccc2)c1 (centres undefined)
 : 6	.	.	2	5	.	.	-9
COc1cccc(CN(C)C(c2ccccc2)c2ccccc2)c1OC
 : 6	21	i	-5	-3	2	18	-8
c1ccc(-c2nnc(CSc3nnc(-c4ccncc4)n3Cc3ccco3)o2)cc1
 : 20	10	i	3	-2	7	-4	-4
Cn1c(CNC(=O)c2ccccc2F)nnc1SCC(=O)NCc1ccccc1
 : -5	4	i	1	7	-13	21	.
COc1ccc(NC(=O)C2(C)Cc3c(-c4ccccc4)ccnc3O2)cn1 (centres undefined)
 : 11	.	.	-3	-6	.	.	-19
O=C(Cn1ncc2c3ccccc3n(Cc3cccc(Cl)c3)c2c1=O)NCc1ccccn1
 : -4	-8	i	-6	2	-10	0	-25
COc1ccc2cc(CCNC(=O)c3ccc(S(=O)(=O)N4CCOCC4)cc3)c(=O)[nH]c2c1
 : 18	-7	i	-1	-1	8	5	0
O=C(NCCc1ccc(Cl)cc1)c1ccc2ccccc2n1
 : -9	1	i	3	2	14	8	-9
COc1ccc(NC(=O)c2c(C(F)(F)F)nn(C)c2SCc2ccccc2Cl)cc1
 : 69	2	i	-1	-4	-1	-3	-7
COCCN(CCOC)C(=O)CSc1ccc(S(=O)(=O)N2CCN(C)CC2)cn1
 : 1	-15	.	0	2	.	.	-4
Cc1nc2ccccc2c(=O)n1/N=C/c1cccs1
 : -11	-7	i	-3	-1	9	-1	.
O=C(NCCOc1ccccc1)c1n[nH]c(=O)c2ccccc12
 : .	-7	i	0	-1	6	1	-20
CC(=O)N1CCN(C(=O)c2ccc(-c3ccccc3Cl)o2)CC1
 : .	-8	.	0	1	.	.	-22
C#CCN1C(=O)S/C(=C/c2cc(C)n(CC)c2C)C1=O
 : -90	12	i	1	-1	6	4	.
Cc1ccc(NC(=O)CCNS(=O)(=O)c2ccc(Br)cc2)cc1S(=O)(=O)N1CCOCC1
 : 19	-8	i	1	-1	.	.	12
CCN(Cc1ccccc1)S(=O)(=O)c1ccc(F)cc1
 : 13	-13	i	4	3	-8	-4	-10
CCN(C(=O)COC(=O)c1cc([N+](=O)[O-])ccc1N1CCCCC1)C1CCS(=O)(=O)C1 (centres undefined)
 : 24	-21	i	2	2	-13	-3	.
CC(=O)c1cccc(NC(=S)Nc2cccc3ccccc23)c1
 : -32	8	i	2	5	5	1	-32
Cc1ccc(CNc2ccc3c(c2)ncn3C)cc1
 : -55	6	i	7	0	-4	-5	-25
CC(=O)NCCOc1c(C)cc(S(N)(=O)=O)cc1C
 : .	-3	i	-1	5	-10	-1	-11
NC(=O)NC(=O)COC(=O)/C=C/c1cccc(Br)c1
 : 10	-18	i	3	3	-17	-3	.
NCCc1nnc(SCc2ccccc2)o1
 : 5	0	i	1	-6	5	-7	8
COc1ccccc1N1CCN(C(=O)c2cc(-c3ccc(Br)cc3)on2)CC1
 : 9	43	i	-1	-3	-6	-1	-1
O=C(Nc1cc(S(=O)(=O)N2CCOCC2)ccc1O)c1ccco1
 : -61	-7	i	6	4	-1	-10	-24
O=C(c1cc(-c2ccccc2)on1)N1CCCCCC1
 : -62	-10	i	-3	-2	-9	-2	-22
Cc1ccc(-c2nc(CS(=O)CC(=O)NCCN3CCCCCC3)c(C)o2)cc1 (centres undefined)
 : -1	-14	i	-1	2	-4	2	7
CSc1ccc(CNC(=O)C2(C)CCCN(C(C)C)C2)cc1 (centres undefined)
 : -20	.	.	2	2	.	.	12
Cc1cc(-n2c(C)cc(C(=O)CSc3nc4ccccc4c(=O)n3Cc3ccco3)c2C)no1
 : -31	-7	.	-1	-2	-12	-17	685*
CCOc1ccccc1NC(=O)CCC(=O)Nc1ccc2nc(N3CCN(C)CC3)cc(C)c2c1
 : .	.	i	1	2	2	0	.
O=C(CC1OC(=O)c2ccccc21)Nc1cc(Cl)ccc1N1CCOCC1 (centres undefined)
 : 13	21	.	6	-1	.	.	-7
COCCCN(C(=O)CCOc1ccc(C)cc1)c1c(N)n(Cc2ccccc2)c(=O)[nH]c1=O
 : 8	-12	i	-1	3	.	.	-16
CCOc1ccc(N(CC)C(=O)CCNC(=O)Cn2ccc3ccccc3c2=O)cc1
 : -51	-20	i	1	1	1	3	1
COc1ccc(C2NC(=O)C(C)S2)cc1 (centres undefined)
 : -1	.	i	2	-1	1	1	-15
C#CCSc1ncc(-c2ccccc2)cn1
 : -50	-2	i	5	2	11	6	7
O=C(c1ccc2ccccc2c1)C1CCCN(C(=O)c2noc3c2CCCC3)C1 (centres undefined)
 : 9	22	i	3	7	4	8	-12
C[C@@H]1CN([C@H](C)CO)C(=O)Cc2cc(NC(=O)Nc3ccccc3)ccc2O[C@@H]1CN(C)C(=O)Nc1ccc2c(c1)OCO2
 : 6	18	.	5	3	.	.	-1
CCCCCCCc1c(C#N)c(N)[nH]c(=S)c1C#N
 : 4	8	i	.	.	-3	6	.
C=CCNC(=O)c1cccc2c1C(=O)c1ccc(N3CCCC3)cc1S2(=O)=O
 : -30	.	.	-84	2	.	.	6
CC1(C)CC(=O)C(c2c[nH]c3ccccc23)C(=O)C1
 : 8	1	i	-5	3	8	9	.
COc1ccc(CN2C3CCCC2CC(NC(=O)/C=C/c2ccccc2)C3)cc1 (centres undefined)
 : 5	-6	i	6	2	0	-8	-10
CCc1nc2ccc(C(=O)NCCCn3ccnc3)cn2c1N(C)Cc1nccs1
 : -31	.	.	2	1	.	.	-7
CNc1ccccc1C(C)(C)c1ccn[nH]1
 : -16	-7	i	-3	2	-6	2	-15
O=C(OC1CCOC1=O)c1cc(-c2cccs2)nc2ccccc12 (centres undefined)
 : 10	-4	i	-1	1	-20	-13	-15

Continuation:
Values run as follows: HIV Env fusion	CSC inhib	Rce1 inh	MT1-MMP act inh	MT1-MMP act inh RFP	PABP FP inh	eIF4H inh	Yeast UUG start
COc1ccc(OC)c(NC(=O)CSc2ccc(-c3cccnc3)nn2)c1
 : 0	6	i	2	-1	16	-4	-23
Cc1ccc(C(=O)OCC(=O)c2c[nH]c3ccccc23)cc1
 : 6	-6	i	-2	2	8	1	.
Cc1cccc(Oc2nc3ccccn3c(=O)c2/C=C(\C#N)C(=O)NC2CCS(=O)(=O)C2)c1C (centres undefined)
 : 4	.	i	-3	-5	-2	-2	18
COc1ccc(NC(=O)C(=O)NCC2CCCN2S(=O)(=O)c2ccc(C)cc2)cc1 (centres undefined)
 : -2	60	i	15	-5	.	.	-17
COc1ccc(C(N)c2csc(Nc3ccc(S(C)(=O)=O)cc3)n2)cc1 (centres undefined)
 : 30	.	.	-13	-4	.	.	-5
O=C(c1ccco1)N1CCN(Cc2cccc(C(F)(F)F)c2)CC1
 : 19	-14	i	1	-2	6	2	5
CCOc1ccc(C(=O)NCC(=O)OCc2cc(C(C)=O)ccc2OC)cc1
 : -14	-9	i	-2	1	5	-9	.
CCC(=O)c1ccc(N2CCN(S(=O)(=O)c3ccccc3)CC2)c(F)c1
 : 8	7	i	1	-6	-5	4	.
CC1(C(=O)Nc2ccc3nc[nH]c3c2)CCN1C(=O)C/C=C/c1ccccc1 (centres undefined)
 : 0	.	.	-1	-4	.	.	-15
CC(C)NC(=O)NC(=O)COC(=O)c1ccc([N+](=O)[O-])cc1Cl
 : -11	1	i	0	1	-1	1	.
COc1ccc(C(=O)Nc2nc(C)c(C)s2)cc1OC
 : .	-8	i	21	-4	2	-2	.
O=C(Nc1ccc(S(=O)(=O)N2CCCCC2)cc1)C1CCN(C(=O)c2ccc(F)cc2)CC1
 : .	-7	i	-4	-14	.	.	.
COC(=O)C1=C(C)NC(=O)NC1c1ccc(N2CCC(c3ccccc3)=N2)cc1 (centres undefined)
 : 14	6	i	-6	-9	-10	-5	1
CCc1ncc(CO)n1Cc1cccc2ccccc12
 : -13	.	.	-3	2	.	.	-13
CC(C)Oc1cc(F)ccc1-c1cc(C(=O)NCc2cccs2)[nH]n1
 : -10	.	.	1	3	.	.	-1
COC1CC(C)NC(=S)N1 (centres undefined)
 : -7	-6	i	2	0	6	-13	-20
O=C(c1cnccn1)N1CCN(c2ccccc2)CC1
 : .	-9	i	7	7	4	-3	.
CCOc1ccc(N(CC(=O)OC)S(=O)(=O)c2c(C)noc2C)cc1
 : 39	-4	i	1	1	-5	-9	-9
O=c1[nH]c(CSc2ncc(-c3ccc(F)cc3)n2Cc2ccco2)nc2ccccc12
 : ?	8	i	-3	-9	7	8	-26
O=C(CCC1CCCN(c2ncccn2)C1)NCc1ccc(F)c(F)c1 (centres undefined)
 : 7	-12	i	-4	2	0	-8	.
CC(=O)OC(C)(C)C#CCN1CCCC1
 : -19	-27	i	2	3	2	8	-12
O=C(N/N=C/c1ccc2c(c1)OCO2)C1COc2ccccc2O1 (centres undefined)
 : .	.	i	-6	-6	4	1	-9
CC(C)CC(=O)Nc1nc2ccc(S(C)(=O)=O)cc2s1
 : 1	-6	i	-5	-3	-9	-4	-10
CCN(C(=O)c1ccc(S(=O)(=O)N2CCOCC2)cc1)C1CCS(=O)(=O)C1 (centres undefined)
 : 0	.	i	4	3	.	.	.
N#CCc1ccc(OC(=O)c2cccnc2)cc1
 : -7	10	i	3	6	4	-5	-8
CCn1ccnc1CN1CCC(CO)(CCOc2ccccc2)CC1
 : -12	28	.	-1	0	-5	-1	-16
CCCn1c(N)c(C(=O)CSc2nnc(Cc3ccccc3)o2)c(=O)n(C)c1=O
 : 18	7	i	-2	-12	4	0	-13
Cc1cc(C)nc(N2CCN(S(=O)(=O)c3ccc(F)cc3)CC2)n1
 : 11	-14	i	-6	-3	1	-15	-15
COc1cc(/C=C/C(=O)N(C)CC(=O)Nc2ccccc2SC)cc(OC)c1OC
 : 8	-26	.	2	-3	.	.	-13
O=C(OCC(=O)c1ccc[nH]1)c1ccc(Br)cc1
 : 0	-13	.	2	0	.	.	-9
CCOC(=O)c1c(S(=O)(=O)Nc2ccc(F)cc2Cl)c(C)n(C)c1C
 : 6	3	i	-2	-2	6	-7	-8
Cc1cc(Nc2cccc(Br)c2)c2ccccc2n1
 : 66*	12	i	10	-12	.	.	.
O=C(Nc1nccs1)C1CC(=O)N(CCc2ccccc2)C1 (centres undefined)
 : 6	.	.	0	2	.	.	0
